From PubChem BioAssay
KCNQ2 enhance: potentiators of rat KCNQ2 potassium channel; 310,000 tested, 0.54% active; CHO-K1 KCNQ2, FluxOR thallium flux fluorescence; active compounds read high; B-score at 10 µM; AID 2239; O88943;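 active = fluorescence ratio B-score at least 3 SD of library B-scores, with initial fluorescence B-score within 3 SD, cut at about 5.3 in these data; same plate scores as AID 2156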;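 also: B-score of peak minus minimum over baseline fluorescence ratio after K+ and Tl+ stimulus; positive B-score means potentiation of KCNQ2 with more thallium influx and brighter signal; only the inactives scoring about 0 or higher are listed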
Target sequence (O88943 whole entry, looked up): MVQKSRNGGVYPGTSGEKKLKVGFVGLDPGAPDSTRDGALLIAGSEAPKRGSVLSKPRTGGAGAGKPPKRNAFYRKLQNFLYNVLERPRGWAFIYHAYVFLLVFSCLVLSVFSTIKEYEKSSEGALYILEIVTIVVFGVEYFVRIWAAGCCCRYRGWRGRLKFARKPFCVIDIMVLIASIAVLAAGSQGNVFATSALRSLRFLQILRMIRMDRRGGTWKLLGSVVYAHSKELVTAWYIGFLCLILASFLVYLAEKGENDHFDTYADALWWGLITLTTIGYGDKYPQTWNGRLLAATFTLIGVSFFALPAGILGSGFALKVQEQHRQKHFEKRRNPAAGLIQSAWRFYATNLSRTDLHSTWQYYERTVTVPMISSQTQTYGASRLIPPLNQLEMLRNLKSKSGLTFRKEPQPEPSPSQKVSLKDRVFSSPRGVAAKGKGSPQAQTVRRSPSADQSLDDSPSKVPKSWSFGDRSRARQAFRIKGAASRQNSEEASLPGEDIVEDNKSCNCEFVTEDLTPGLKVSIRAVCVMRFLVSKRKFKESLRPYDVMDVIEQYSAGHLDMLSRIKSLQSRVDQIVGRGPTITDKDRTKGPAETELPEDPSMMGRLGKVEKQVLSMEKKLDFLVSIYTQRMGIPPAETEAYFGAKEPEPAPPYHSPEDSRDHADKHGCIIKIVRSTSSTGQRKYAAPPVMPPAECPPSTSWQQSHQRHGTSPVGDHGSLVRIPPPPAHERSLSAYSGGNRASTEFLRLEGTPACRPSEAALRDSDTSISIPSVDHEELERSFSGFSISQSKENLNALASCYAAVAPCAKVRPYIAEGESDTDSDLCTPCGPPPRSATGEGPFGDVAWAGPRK
KCNQ2 enhance baseline: further read-out of KCNQ2 enhance, marked with its call; B-score; compound at 10 µM; measured here: initial fluorescence intensity artifact check;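 brightness before thallium and not channel activity; 0 = typical well and far values either way flag optical interference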
An asterisk follows results filed as active.

KCNQ2 enhance	KCNQ2 enhance baseline	Structure
0.04	-0.68	Cc1ccc(NC(=O)c2oc3ccccc3c2NC(=O)C2CC2)cc1
0.76	1.1	Cc1cc([N+](=O)[O-])nn1Cc1noc(C(=O)NCCc2ccccn2)n1
0.01	1.1	Cc1ccc(N(CC(=O)NCc2ccccn2)S(=O)(=O)c2ccccc2)cc1Cl
0.04	0.18	NNC(=O)CSCc1nc(-c2ccccc2)cs1
1.1	2	COCCn1nnnc1CN1CCC(O)(c2cccc(C(F)(F)F)c2)CC1
0.28	0.98	CCOC(=O)c1c(C)oc2c(F)c(F)c(F)c(F)c2c1=O
0.95	0.75	CCOc1cc(/C=N/Nc2nn3cnnc3c3ccccc23)ccc1O
1.4	1.6	Cc1cc(NC(=O)CSc2nnc(-c3ccccc3)n2C)no1
1.2	0.32	COc1ccc(OC)c(S(=O)(=O)N(C)CC(=O)N2CCN(c3ccccc3)CC2)c1
0.4	0.41	O=C(CCCSc1nc2ccccc2s1)Nc1nccs1
0.71	-0.23	Cc1cnc(C(=O)OC(C)C(=O)Nc2ccc(Cl)cn2)cn1 (stereo unspecified)
0.26	-0.42	CS(=O)(=O)N1CCC(C(=O)Nc2ccc3c(c2)OCO3)CC1
0.05	1.1	COc1ccc(N2CCN(C(CNC(=O)C(=O)NCCc3c[nH]c4ccccc34)c3ccco3)CC2)cc1 (stereo unspecified)
0.02	2.3	CCN(CC)c1ccc(S(=O)(=O)N2CCOCC2)cc1NC(=O)CNCc1ccccc1
1.5	0.71	N#CCCn1nc(-c2ccccc2)cc1Nc1ccccc1NC(=O)C(F)(F)F
1.6	-0.1	O=C(Cn1c2ccccc2c2nc3n(c(=O)c21)CCS3)Nc1ccccc1C(F)(F)F
0.03	0.21	CCCCn1c(N)c(NCc2ccccc2OC)c(=O)[nH]c1=O
0.94	-0.64	CC1CN(C(=O)/C=C/c2ccccc2Cl)CC(C)O1 (stereo unspecified)
0.03	0.97	O=C(c1ccc(CS(=O)Cc2cccc(Cl)c2)o1)N1CCN(C2CCCCC2)CC1 (stereo unspecified)
0.33	1.5	CC(=O)Oc1cc2c(cc1Cl)C(c1cccs1)CC1(CC(C)(C)NC(=S)N1)O2 (stereo unspecified)
0.88	-0.42	CC(=O)Nc1ccc(S(=O)(=O)NCCC(=O)OCC(=O)c2ccc(Br)cc2)cc1
1.2	-0.29	COCCn1c(SCc2ccc(Cl)cc2)nc2c1c(=O)[nH]c(=O)n2C
0.49	-0.97	CO[C@@H]1O[C@@H]2COC(c3ccccc3)O[C@@H]2[C@@H](OC)[C@@H]1O (stereo partly specified)
0.24	-0.43	COc1ccc(/C=C/C(=O)N(C)C2CCS(=O)(=O)C2)cc1OC (stereo unspecified)
0.05	0.14	COC(=O)c1ccc(NCN2C(=O)C3C4CCC(C4)C3C2=O)cc1 (stereo unspecified)
0.19	-0.3	O=C(c1ccc(F)cc1)N1CCN(c2cnn(-c3ccccc3)c(=O)c2Cl)CC1
0.12	-1.1	O=C1CCC(C(=O)Nc2cccc(C(F)(F)F)c2)N1 (stereo unspecified)
0.03	2.5	CC(NCC(O)COc1ccc2ccccc2c1)c1ccccc1 (stereo unspecified)
1.7	0.01	CCCC(NC(=O)Cc1c(C)c2c(cc(C)c3c(C)coc32)oc1=O)C(=O)O (stereo unspecified)
0.01	2	c1ccc(COCC2CCNCC2)cc1

The closing four records of the section above are carried over, then new ones follow:
KCNQ2 enhance	KCNQ2 enhance baseline	Structure
0.12	-1.1	O=C1CCC(C(=O)Nc2cccc(C(F)(F)F)c2)N1 (stereo unspecified)
0.03	2.5	CC(NCC(O)COc1ccc2ccccc2c1)c1ccccc1 (stereo unspecified)
1.7	0.01	CCCC(NC(=O)Cc1c(C)c2c(cc(C)c3c(C)coc32)oc1=O)C(=O)O (stereo unspecified)
0.01	2	c1ccc(COCC2CCNCC2)cc1
1.7	0.04	CCOc1ccc(-c2nn[nH]n2)cc1OCC
0.03	1.2	CCOC(=O)C(=O)N/N=C/c1ccco1
1.6	-1.2	CC(C)(C)OC(=O)NCc1n[nH]c(=S)n1C1CC1
0.21	-0.02	FC(F)(F)c1cc(-c2cccs2)nc2ncnn12
0.04	-1.2	COc1ccc(C2NC(=S)NC3=C2N2CCC3CC2)cc1 (stereo unspecified)
0.26	0.3	CCCCn1c(N)c(N(CCOC)C(=O)CCS(=O)(=O)c2ccc(Cl)cc2)c(=O)[nH]c1=O
0.47	-1.7	Cc1ccccc1NC(=O)C1CC(=O)N(c2ccc3c4c(cccc24)CC3)C1 (stereo unspecified)
0.91	-0.19	CC(=O)c1cccc(NC(=O)COC(=O)c2cccs2)c1
0.28	0.55	C=C(C)COc1ccc(-c2[nH]ncc2-c2ccc(OC)c(OC)c2)c(O)c1
0.37	-0.39	CCC[C@H]1COCCS(=O)(=O)N1Cc1ccc(Br)cc1
0.9	0.05	CCOC(=O)N1CCC(c2nc3ccccc3[nH]2)CC1
0.93	0.72	Cc1cccc(OCCCC(=O)NC(C)c2ccccc2)c1 (stereo unspecified)
0.45	-1.9	NC(=O)c1nn(-c2ccccc2)nc1N
2.4	0.97	Cc1ccnc(NC(=O)C2CCN(S(=O)(=O)c3c(C)c(C)cc(C)c3C)CC2)c1
2.3	1.6	O=C(NCCSCc1ccco1)Nc1cccc(Cl)c1
1.6	-2.4	Cc1[nH]c2ccccc2c1C(=O)C(=O)NC1CC1
0.07	-1.2	O=C(CN1CCOCC1)Nc1ccccc1NC(=O)C1CCN(c2ncccn2)CC1
0.45	-0.35	C/C(CC(=O)Nc1cccc(C(F)(F)F)c1)=N\NC(=O)c1cnccn1
0.74	-0.07	O=C(CCn1c2c(c3ccccc31)CCCC2)NNC(=O)c1ccccc1Cl
0.67	0.29	NS(=O)(=O)c1ccc(CCNC(=O)c2ccc(Cl)nc2)cc1
1.9	-1.7	CCC(Sc1nc2cc(OC)c(OC)cc2c(=O)n1CCc1ccc(S(N)(=O)=O)cc1)C(=O)NCCOC (stereo unspecified)
0.02	0.1	CCCC(C)NC(=O)/C=C/c1cccc([N+](=O)[O-])c1 (stereo unspecified)
1.3	-0.01	CCc1cccc(NC(=O)NC(=O)Cn2nnc(C(=O)OC)c2C(=O)OC)c1
0.81	-0.04	CC(C)(C)S(=O)(=O)c1ccc(S(=O)(=O)C(C)(C)C)s1
1.2	3.4	Cc1cccc(C)c1NC(=O)Nc1ccc2c(c1)OCO2
0.63	-0.38	CCCCSc1n[nH]c(N)n1
0.87	-0.16	Cc1nc(-c2ccc(Cl)cc2)sc1C1(C)CC(c2ccncc2)=NO1 (stereo unspecified)
2.4	0.4	CC1(NC(=O)c2cc(-c3cccs3)nn2-c2ccccc2)CCS(=O)(=O)C1 (stereo unspecified)
0.87	-1.1	O=C(NCc1ccccc1Cl)C1CCC(=O)N(CCCN2CCCC2=O)C1 (stereo unspecified)
1.3	0.86	COc1ccccc1NC(=O)N1CCCC1C(=O)Nc1ccc(NC(C)=O)cc1 (stereo unspecified)
0.01	1.7	CCOC(=O)c1c(C)c(C(=O)NCCCOC)c(C)n1C
0.28	0.15	O=C(CCl)c1cc2c3c(c1)CC(=O)N3CCC2
1.2	1.4	CN(C)CCCNC(=O)C(=O)NCC(c1cccs1)S(=O)(=O)c1ccc(F)cc1 (stereo unspecified)
0.52	-2.5	Cc1cc(C)c(N(CC(=O)NC(C)(C)C)C(=O)CNC(=O)c2cccs2)c(C)c1
2.9	1.6	CCOC(=O)Cn1c(=S)[nH]c2c(oc3ccc(Cl)cc32)c1=O
1.6	-0.73	CCOC(=O)CNC(=O)CNC(=O)c1ccc(OC(C)C)cc1
0.34	1.1	CC(C)NS(=O)(=O)c1ccc(OCC(=O)Nc2ccccc2F)cc1
0.24	0.71	Clc1ccc(Nc2ccc3ccccc3n2)cc1
1.4	-0.94	COc1ccc2nc(NC(=O)c3ccc(-c4cccc([N+](=O)[O-])c4)o3)sc2c1
1.1	-0.43	Cc1ccccc1Nc1nc(N)nc(COC(=O)c2ccc(O)cc2)n1
0.43	-0.56	Cc1cccc(NC(=S)N(Cc2ccc(Cl)cc2)Cc2ccc(C(=O)O)cc2)c1
0.68	-0.09	Cc1ccccc1C(=O)NCCNC(=O)c1ccco1
0.08	-0.3	CCOc1ccccc1NC(=O)C(NCC1(N2CCCCC2)CCCCC1)c1ccccc1 (stereo unspecified)
3.6	-0.33	O=C(NNC(=O)c1ccccc1F)c1ccc(-c2ccc(Cl)cc2)o1
1.1	1.1	Cc1ccc(NC(=O)c2cc3c(s2)CCC3)cc1S(=O)(=O)N1CCOCC1
7.3*	-0.58*	O=C(N/N=C/c1ccccn1)c1cc(Br)ccc1O
1.7	-0.44	CCCCCn1c(=NC(=O)c2cccnc2)c(C#N)cc2c(=O)n3cccc(C)c3nc21
0.03	-0.05	O=C1C(Cl)=C(NCCCN2CCOCC2)C(=O)N1CCc1ccccc1
0.03	2	CCN(CC)c1ccc(/C=N/n2c(C)cc(C)cc2=O)cc1
1.9	-0.29	CC1=NN(C(=O)c2csc(C)c2C)C(O)(C(F)(F)F)C1 (stereo unspecified)
0.02	-0.27	NC(=O)CSc1nc(-c2ccccc2)nc2ccccc12
2.6	-1.1	CCOC(=O)C1CCN(S(=O)(=O)c2ccc3c(c2)CCN3C(C)=O)CC1
0.87	2.3	COc1ccc(CN2CCN(Cc3c[nH]c4ccccc34)CC2CCO)cc1C (stereo unspecified)
0.51	-0.18	c1cncc(CSc2nnc(-c3cccnc3)n2Cc2ccco2)c1
2.1	0.18	c1ccc(-c2cnnc(SCc3cn4cccnc4n3)n2)cc1
1.4	-2.4	CCc1ccc(Nc2ncc3c(n2)CC(C)CC3=O)cc1 (stereo unspecified)
0.6	0.42	CC1(c2nnc(Cc3ccccc3)o2)CC(c2cccnc2)=NO1 (stereo unspecified)
4.5	-1.2	CC(C)(C)C1=CC(O)(c2ccccc2)C=C(C(C)(C)C)C1=O
1.9	-1.1	O=C(NC1CCCCC1)C(c1ccco1)N(C(=O)c1csnn1)c1cccc(F)c1 (stereo unspecified)
0.1	0.06	COc1cc(CNCCCCO)ccc1OCc1ccccc1F

Ordered by the number under KCNQ2 enhance (largest number first): 3 of the compounds above.
smiles	KCNQ2 enhance	KCNQ2 enhance baseline
CC1=NN(C(=O)c2csc(C)c2C)C(O)(C(F)(F)F)C1 (stereo unspecified)	1.9	-0.29
COc1ccc(CN2CCN(Cc3c[nH]c4ccccc34)CC2CCO)cc1C (stereo unspecified)	0.87	2.3
NC(=O)CSc1nc(-c2ccccc2)nc2ccccc12	0.02	-0.27

Molecules listed so far that have a tert-butyl group, in the order listed:
KCNQ2 enhance	KCNQ2 enhance baseline	Structure
1.6	-1.2	CC(C)(C)OC(=O)NCc1n[nH]c(=S)n1C1CC1
0.81	-0.04	CC(C)(C)S(=O)(=O)c1ccc(S(=O)(=O)C(C)(C)C)s1
0.52	-2.5	Cc1cc(C)c(N(CC(=O)NC(C)(C)C)C(=O)CNC(=O)c2cccs2)c(C)c1
4.5	-1.2	CC(C)(C)C1=CC(O)(c2ccccc2)C=C(C(C)(C)C)C1=O

A section from further up:
KCNQ2 enhance	KCNQ2 enhance baseline	Structure
1.9	-1.1	O=C(NC1CCCCC1)C(c1ccco1)N(C(=O)c1csnn1)c1cccc(F)c1 (stereo unspecified)
0.1	0.06	COc1cc(CNCCCCO)ccc1OCc1ccccc1F

(listing goes on)
KCNQ2 enhance	KCNQ2 enhance baseline	Structure
0.92	-1.3	c1coc(-c2cc(C3CCNCC3)[nH]n2)c1
1	-0.57	COc1ccc(N2CCN(C(=O)CCc3ccc(S(=O)(=O)NCC(C)C)cc3)CC2)cc1
1.6	0.45	CC(=O)Nc1nc2ccccc2[nH]1
0.02	6.5	COc1cc2c(cc1OC)CN(C(=S)Nc1ccccc1Cl)CC2
1.7	0.92	Cc1cc(C(=O)NP(=O)(N2CCOCC2)N2CCOCC2)c(C)n1-c1ccc(Br)cc1
0.38	0.54	COc1ccccc1Nc1ncnc2c1cnn2-c1cccc(C)c1
0.54	-2.5	CC(C)OCCCNC(=O)Nc1cccc2ccccc12
1.4	-0.67	Cc1cccc(/N=C/c2ccccn2)n1
1	-0.19	O=[n+]1c2c(n([O-])c3cc(Cl)ccc31)CCCC2
2.5	0.78	COc1ccc(CNC(=O)C2CCCN(S(=O)(=O)c3ccc(F)cc3)C2)cc1 (stereo unspecified)
1.1	-0.6	O=C(CCN1CCN(Cc2ccccc2)CC1)Nc1ccccc1Cl
3.3	0.31	CCOc1ccc(NC(=O)CC2C(=O)N(c3ccc(OC)c(Cl)c3)C(=S)N2C2CC2)cc1 (stereo unspecified)
0.66	-1.5	CC(C)c1ccc(-c2nc(N3CCOCC3)[nH]c(=O)c2C#N)cc1
15*	2.5*	CCCN1C(=O)/C(=C/c2ccc(C)s2)NC1=S
0.09	2.3	Cc1cccc(NC(=O)CN2NS(=O)(=O)c3ccccc3C2=O)c1
1	0.21	CN(C)Cc1c(O)c(Cl)cc2c3c(c(=O)oc12)CCCC3
0.06	0.01	O=C(NC(Cc1ccccc1)C(=O)NC1CC1)OCc1ccccc1 (stereo unspecified)
3.7	-0.88	Cc1ccc(NC(=O)COC(=O)c2ccccc2Nc2ccccc2)cc1
0.09	-0.1	COc1ccc(N(C(=O)Cn2nnc(-c3ccc(C)o3)n2)C(C(=O)NC2CCCC2)c2ccncc2)cc1 (stereo unspecified)
1.5	0.2	Cc1cc(C)c2nc(N3CCC(C(=O)NCc4ccccn4)CC3)sc2c1
0.07	-3.7	CN(C)S(=O)(=O)c1ccc(C(=O)OCC2CC2(Cl)Cl)cc1 (stereo unspecified)
0.77	-0.29	O=C(CCNC(=O)C1CCN(S(=O)(=O)c2ccccc2)CC1)NCCc1ccc(Cl)cc1
0.82	-0.01	O=C(NC1CC(=O)N(c2ccc3c(c2)OCCO3)C1)N1CCCCC1 (stereo unspecified)
0.16	0.25	O=C(OCC#CCSc1nnc(-c2ccc(Br)cc2)o1)c1ccco1
0.17	-0.34	CCS(=O)(=O)Nc1c(C(=O)O)[nH]c2ccccc12
0.12	1.7	COc1cccc(C(=O)Nc2ccccc2F)c1

These rows are one share of the data; the hit share may differ from the screen's.
